CDC25B CDK2 inh – human CDC25B-CDK2/CyclinA binding inhibition. P30305+P24941. AID 1259370. HTRF CDC25B-CDK2/CyclinA binding, anti-His/anti-Flag; hits give high values. 94,000 compounds, 0.72% hits. z-score (concentration not given with the values);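 note: score is relative to mean and SD of negative controls; strong numbers were not always called active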
TAR Tat displ – HIV-1 TAR-Tat binding disruption. HIV-1 TAR RNA, Tat peptide displacement FRET; hits give high values. 100,000 compounds, 0.6% hits. z-score (concentration not given with the values). AID 1259389;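 note: score is relative to mean and SD of negative controls; some compounds called inactive have numbers as strong as hits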
* hit, by the source's call.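 Rule for the calls: active = z-score from 3 up in half or more of its runs; inactive = the rest.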

For Cc1ccc(C)c(CN2N=NC3C(=O)N(c4ccc(F)c(F)c4)C(=O)C32)c1 (configuration not stated) the results were CDC25B CDK2 inh -0.13 and TAR Tat displ 0.97.
For Cn1cc(S(=O)(=O)c2ccccc2)c(=O)c2cc(F)ccc21 the results were CDC25B CDK2 inh -1.6 and TAR Tat displ 21*.
`Cc1cc(C)c(C)c(S(=O)(=O)Nc2ccc3c(c2)CC(=O)N3C)c1C` gave TAR Tat displ 1.2.
`COc1cc2ccccc2cc1C(=O)Nc1cccc(-c2nc3ccc(C)cc3o2)c1` gave CDC25B CDK2 inh -2.7.
Screening Cc1ccc(-n2ncc3c2ncn2nc(COc4c(C)cccc4C)nc32)cc1 returned CDC25B CDK2 inh -2.5 and TAR Tat displ 0.74.
Screening Cc1ccc(-c2noc(Cc3ccccc3)n2)cc1 returned CDC25B CDK2 inh -0.89 and TAR Tat displ -0.64.
Cn1cnc(S(=O)(=O)N(Cc2ccccc2)Cc2ccccc2N2CCC(C(=O)O)CC2)c1 was read as CDC25B CDK2 inh -0.09.
O=c1[nH]ccn(-c2cccc(F)c2)c1=O was read as CDC25B CDK2 inh -0.34 and TAR Tat displ 0.41.
`O=C(c1nc(-c2ccncc2)no1)N1CCN(C2CCCCC2)CC1` gave TAR Tat displ 1.8.
`O=C(Nc1cccc(OCc2cc(=O)n3nc(C4CC4)sc3n2)c1)c1ccco1` gave CDC25B CDK2 inh -2.7 and TAR Tat displ 1.2.
For COc1ccc(-n2nnnc2C2CCN(S(=O)(=O)c3cccc4c(N(C)C)cccc34)CC2)cc1 the results were CDC25B CDK2 inh -2 and TAR Tat displ -0.43.
`O=C(OCc1c(F)cccc1Cl)c1ccc(Cl)cc1` gave CDC25B CDK2 inh -0.66.
For COc1cccc(C2Nc3ccccc3-n3cc4c(=O)n(C)c(=O)n(C)c4c32)c1OC (configuration not stated) the results were CDC25B CDK2 inh -2.7 and TAR Tat displ 2.1.
O=C(COc1ccc(F)cc1)Oc1ccc(-n2cnnn2)cc1 was read as CDC25B CDK2 inh -1.1 and TAR Tat displ -0.46.
For CC(CC(=O)N1CCN(c2cccc(Cl)c2)CC1)CC1=NS(=O)(=O)c2ccccc2N1 (configuration not stated) the results were CDC25B CDK2 inh -2 and TAR Tat displ 1.1.
Screening C=CCNc1nc(SCc2ccc(Cl)cc2)nc2sc3c(c12)CCN(C)C3 returned CDC25B CDK2 inh -0.11.
CCc1ccc(Nc2nn3c(=O)c4cc5c(cc4nc3s2)OCO5)cc1 was read as CDC25B CDK2 inh -0.39 and TAR Tat displ 4.
`CCN(CC)CCn1nc(C)nc1-c1ccccc1O` gave CDC25B CDK2 inh 0.14 and TAR Tat displ 1.9.
`Cc1ccn2cc(-c3ccccc3)cc2c1` gave CDC25B CDK2 inh -1.2 and TAR Tat displ -7.5.
For COc1ccc2c(c1)OC[C@@H](Cc1ccc(OC)c(OC)c1)[C@@H]2O the results were TAR Tat displ 0.24.
For CC(C)(C)NC(=O)C1CCCN(c2nnc(-n3cccc3)s2)C1 (configuration not stated) the results were TAR Tat displ 1.1.
Screening COc1ccc(Nc2oc(/C=C/c3cccc(OC)c3)nc2C#N)cc1 returned CDC25B CDK2 inh -1.5 and TAR Tat displ 0.75.
CCOC(=O)CNS(=O)(=O)c1ccc2c(c1)N(C)CCO2 was read as TAR Tat displ 1.3.
Screening CNC(=O)c1c(NC(=O)C(c2ccccc2)c2ccccc2)sc2c1CCC2 returned TAR Tat displ -2.3.
`Cc1cc(=O)[nH]c(SCc2ccc(Br)cc2)n1` gave CDC25B CDK2 inh -1.5 and TAR Tat displ -0.56.
Screening CSc1ccc(C2C(C(=O)OCCc3ccccc3)=C(C)NC3=C2C(=O)CCC3)cc1 (configuration not stated) returned CDC25B CDK2 inh -0.03.
Cn1c(=O)c(=O)n(C)c2cc(S(=O)(=O)N3CCOc4ccccc43)ccc21 was read as TAR Tat displ 0.95.
For CCN(CC)S(=O)(=O)c1ccc2c(c1)NC(=O)C1CCCCN21 (configuration not stated) the results were TAR Tat displ 0.65.
`Cc1c(C(=O)NC2CC2)sc2ncnc(N3CCCC3)c12` gave TAR Tat displ 1.4.
`CC1=C(c2ccc(C(C)C)cc2)S(=O)(=O)N(CC(=O)Nc2cc(C)cc(C)c2)C1=O` gave TAR Tat displ 0.48.
For O=c1c(O)c(-c2ccccc2)oc2ccccc12 the results were TAR Tat displ 1.2.
O=C(c1cc2ccccc2oc1=O)N1CCN(c2ccccn2)CC1 was read as CDC25B CDK2 inh -0.57.
`COc1ccc2c(c1)OC1(O)COc3cc(OC)c(OC)cc3C1=C2` (configuration not stated) gave TAR Tat displ -0.49.
Fc1ccc(-c2cn3cc(Cc4ccc(Br)cc4)sc3n2)cc1 was read as CDC25B CDK2 inh -1.1 and TAR Tat displ 0.66.
`CC1CC(C)CN(C(=O)C2CCN(c3ncnc4c3nc3n4CCCCC3)CC2)C1` (configuration not stated) gave TAR Tat displ 1.1.
For O=C(O)CSc1cc(NS(=O)(=O)c2cccs2)c2ccccc2c1O the results were CDC25B CDK2 inh -4.5.
`Cc1cccc(CN[C@H]2CS(=O)(=O)C[C@@H]2S(=O)(=O)c2cccs2)c1` gave CDC25B CDK2 inh -1.4 and TAR Tat displ -0.44.
Screening O=C(O)c1nccnc1C(=O)NCc1csc2ccc(Cl)cc12 returned CDC25B CDK2 inh -1.8.
Screening Cn1cccc1CNCc1ccc(F)cc1 returned CDC25B CDK2 inh -0.82 and TAR Tat displ -2.2.
CC(C)n1c(=O)c2oc3ccccc3c2n(Cc2ccccc2F)c1=O was read as TAR Tat displ 0.99.
For COc1ccc(OC)c(NC(=O)Nc2c[nH]c(=O)[nH]c2=O)c1 the results were TAR Tat displ 2.4.
`O=[N+]([O-])c1ccc(-c2nc(-c3ccc(-c4csnn4)cc3)no2)cc1` gave CDC25B CDK2 inh -2.2.
For CCOc1ccc(-n2ccc(=O)c(C(=O)Nc3c(C)n(C)n(-c4ccccc4)c3=O)n2)cc1 the results were CDC25B CDK2 inh -0.13 and TAR Tat displ -0.19.
Screening Cc1ccc(-c2cc(N3CCOCC3)n[nH]2)cc1 returned CDC25B CDK2 inh -1.9 and TAR Tat displ -0.3.
For CCN(Cc1ccccc1)S(=O)(=O)c1c(C)cc(N2C(=O)CCS2(=O)=O)cc1C the results were CDC25B CDK2 inh -1.6 and TAR Tat displ 0.21.
Cc1nn(-c2nncc(-c3ccc(F)cc3)n2)c2c1C(c1cccc(Br)c1)CC(=O)N2 (configuration not stated) was read as CDC25B CDK2 inh -1.1 and TAR Tat displ 0.86.
Screening CCN1C(=O)C2(/C(=C(/O)c3ccc(OC)cc3)C(=O)C(=O)N2CCCOC)c2ccccc21 (configuration not stated) returned CDC25B CDK2 inh -0.55 and TAR Tat displ 3.5.
For Cc1csc(NC(=O)C2CCCN(c3cc(=O)n(C)c(=O)n3C)C2)n1 (configuration not stated) the results were TAR Tat displ 1.9.
For CCOC(=O)Cn1c(C2CC(=O)N(CC(C)C)C2)nc2ccccc21 (configuration not stated) the results were CDC25B CDK2 inh -1.5 and TAR Tat displ 1.6.
`CC1(C)Cc2[nH]c(=O)c(C(=O)O)cc2CO1` gave CDC25B CDK2 inh 1.1.
Screening COC(=O)C(C)SC1=NS(=O)(=O)c2cc(Cl)ccc2N1 (configuration not stated) returned TAR Tat displ 1.5.
Screening NCc1ccc(S(N)(=O)=O)cc1 returned TAR Tat displ 1.2.
Cc1ccc(C2CC=CCC2[N+](=O)[O-])cc1 (configuration not stated) was read as CDC25B CDK2 inh -0.05.
`CN1C(C(=O)N2CCCc3ccccc32)=CC(c2cccs2)=NS1(=O)=O` gave CDC25B CDK2 inh -2 and TAR Tat displ 2.
For CCOCCCNc1nc2c(S(=O)(=O)c3ccc(C)cc3)nnn2c2ccccc12 the results were CDC25B CDK2 inh -1.6 and TAR Tat displ -1.3.
CC(C)(C)c1nnc2sc(CCc3ccccc3)nn12 was read as CDC25B CDK2 inh -1.1 and TAR Tat displ -1.9.
CN(C)C(=O)c1ccc(C2SCC(=O)N2CCc2ccccc2)cc1 (configuration not stated) was read as CDC25B CDK2 inh -1.6.
Screening O=C(NC(=O)N1CCN(c2ccc([N+](=O)[O-])cn2)CC1)c1c(F)cccc1Cl returned CDC25B CDK2 inh -0.12.
Screening COc1ccc(C2C3=C(CC(C)(C)CC3=O)OC3=C2C(=O)CC(C)(C)C3)cc1OC returned CDC25B CDK2 inh -0.19.
Screening Brc1ccc(C2=Nn3c(nnc3-c3ccccc3)SC2)s1 returned CDC25B CDK2 inh -1.4.

Twelve compounds from above, sorted by formula weight, smallest number first.
Screening NCc1ccc(S(N)(=O)=O)cc1 returned TAR Tat displ 1.2.
Screening Cc1ccc(-c2cc(N3CCOCC3)n[nH]2)cc1 returned CDC25B CDK2 inh -1.9 and TAR Tat displ -0.3.
Screening COC(=O)C(C)SC1=NS(=O)(=O)c2cc(Cl)ccc2N1 (configuration not stated) returned TAR Tat displ 1.5.
For CCOC(=O)Cn1c(C2CC(=O)N(CC(C)C)C2)nc2ccccc21 (configuration not stated) the results were CDC25B CDK2 inh -1.5 and TAR Tat displ 1.6.
CN(C)C(=O)c1ccc(C2SCC(=O)N2CCc2ccccc2)cc1 (configuration not stated) was read as CDC25B CDK2 inh -1.6.
`CN1C(C(=O)N2CCCc3ccccc32)=CC(c2cccs2)=NS1(=O)=O` gave CDC25B CDK2 inh -2 and TAR Tat displ 2.
Screening O=C(NC(=O)N1CCN(c2ccc([N+](=O)[O-])cn2)CC1)c1c(F)cccc1Cl returned CDC25B CDK2 inh -0.12.
Screening COc1ccc(C2C3=C(CC(C)(C)CC3=O)OC3=C2C(=O)CC(C)(C)C3)cc1OC returned CDC25B CDK2 inh -0.19.
For CCOCCCNc1nc2c(S(=O)(=O)c3ccc(C)cc3)nnn2c2ccccc12 the results were CDC25B CDK2 inh -1.6 and TAR Tat displ -1.3.
For CCN(Cc1ccccc1)S(=O)(=O)c1c(C)cc(N2C(=O)CCS2(=O)=O)cc1C the results were CDC25B CDK2 inh -1.6 and TAR Tat displ 0.21.
Screening CCN1C(=O)C2(/C(=C(/O)c3ccc(OC)cc3)C(=O)C(=O)N2CCCOC)c2ccccc21 (configuration not stated) returned CDC25B CDK2 inh -0.55 and TAR Tat displ 3.5.
Cc1nn(-c2nncc(-c3ccc(F)cc3)n2)c2c1C(c1cccc(Br)c1)CC(=O)N2 (configuration not stated) was read as CDC25B CDK2 inh -1.1 and TAR Tat displ 0.86.

Continued.
Screening COc1ccc(-c2nc(N3CCCC3)nc3nn4c(C)cc(C)nc4c23)cc1 returned CDC25B CDK2 inh -0.21.
Screening CCOc1ccc(C2CC(=O)n3nc(-c4ccc(OC)cc4)nc3S2)cc1OC (configuration not stated) returned CDC25B CDK2 inh -0.99.
For Cn1nc(C(=O)Nc2cc(F)ccc2F)c2c1-c1ccsc1CC2 the results were TAR Tat displ 0.56.
CCOc1ccc(-c2noc(-c3ccncc3)n2)cc1OC was read as CDC25B CDK2 inh -1.4 and TAR Tat displ 2.5.
For Cc1ccc(NC(=O)C(NS(=O)(=O)c2ccc3c(c2)CCC(=O)N3)c2ccccc2)nc1 (configuration not stated) the results were CDC25B CDK2 inh -0.01.
Screening CC(C(=O)N1CCN(C(=O)c2ccco2)CC1)C1CCN(C(=O)c2cc3cc(Cl)ccc3[nH]2)CC1 (configuration not stated) returned TAR Tat displ 2.1.
For CN(Cc1ccccc1)C(CNS(=O)(=O)c1ccc(Cl)cc1)c1ccccc1 (configuration not stated) the results were CDC25B CDK2 inh -0.8 and TAR Tat displ 0.72.
Screening COCCOC(=O)c1c(C)oc2ccc(OCC(N)=O)cc12 returned CDC25B CDK2 inh -0.72 and TAR Tat displ 0.86.
For COc1c2occc2c(OC)c2c(=O)cc(C)oc12 the results were TAR Tat displ 3.6.
CCOC(=O)c1c(C)[nH]c(C)c1S(=O)(=O)NCCc1ccco1 was read as TAR Tat displ 1.3.
For CCOC(=O)c1csc(C)n1 the results were CDC25B CDK2 inh -1.6.
Screening COc1ccc(CC2c3cc(OC)c(OC)cc3CC[N+]2(C)CCC(=O)OCCCCCOC(=O)CC[N+]2(C)CCc3cc(OC)c(OC)cc3C2Cc2ccc(OC)c(OC)c2)cc1OC (configuration not stated) returned TAR Tat displ -0.91.
`NC(=S)c1ccc2nonc2c1` gave CDC25B CDK2 inh -2.5.
For O=C1c2cccnc2C(=O)N1Cc1ccc(S(=O)(=O)NCc2ccco2)cc1 the results were TAR Tat displ 0.91.
CC(C)(C)c1nnc2sc(-c3cc4ccccc4o3)nn12 was read as CDC25B CDK2 inh 4.4 and TAR Tat displ 0.44.
For CC(=O)N1N=C(c2cncc(Br)c2)OC1c1cccc2ccccc12 (configuration not stated) the results were TAR Tat displ 1.1.
For O=C(O)c1ccccc1OP(=O)(O)O the results were TAR Tat displ 1.8.
CC(C)(C)Nc1c(-c2ccc(Cl)cc2)c(=O)c1=O was read as TAR Tat displ -1.
For Cc1cccc(C)c1OCc1nc2c3cnn(-c4ccc(Cl)cc4)c3ncn2n1 the results were CDC25B CDK2 inh -2.6 and TAR Tat displ 4.6.
For O=S(=O)(Nc1cccc(-c2nc3ccccc3s2)c1)c1ccccc1 the results were CDC25B CDK2 inh 2.2.
CC(C)c1onc(C(=O)Nc2sc3c(c2C#N)CCC3)c1[N+](=O)[O-] was read as CDC25B CDK2 inh -0.75 and TAR Tat displ 1.9.
For O=C(NCc1ccncc1)c1nnc(Cc2ccc3c(c2)OCO3)o1 the results were CDC25B CDK2 inh -0.18 and TAR Tat displ 0.36.
For CCC1CCCCN1CCCNC(=O)c1c(O)nc2ccccn2c1=O (configuration not stated) the results were CDC25B CDK2 inh -0.93 and TAR Tat displ 0.9.
For CC1CCc2nc3ccc(S(=O)(=O)N4CCC(C(=O)N5CCCCC5)CC4)cc3c(C(=O)O)c2C1 (configuration not stated) the results were CDC25B CDK2 inh -1 and TAR Tat displ 1.3.
For COC(=O)c1sc(N2C(=O)c3oc4ccc(F)cc4c(=O)c3C2c2ccc(O)cc2)nc1C (configuration not stated) the results were CDC25B CDK2 inh -2 and TAR Tat displ 2.6.
For CN1CCN(CCCNC(=O)C2CCCN(c3nnc(-n4cccc4)s3)C2)CC1 (configuration not stated) the results were CDC25B CDK2 inh -1.3 and TAR Tat displ -0.65.
For Cn1cccc1Cc1nnc(SCC(=O)Nc2ccc(Cl)cc2)n1C the results were CDC25B CDK2 inh -1.5 and TAR Tat displ 1.6.
